LASV entry inh: blocks Lassa virus binding to or entry into cells | 1.2% of 300,000 active | AID 540256 | Lassa virus pseudotype entry inhibition, cell reporter; control for the full effect not named in the record | Potency, µM (doses to about 37.9 µM), inactives show top-dose activity change, negative = inhibition, actives largely listed as inhibitors; active means well fitted inhibition curve with a large enough effect; inconclusive means small, poorly fitted or top-dose-only effect, or effect the other way; inactive means flat fitted curve, though single readings scatter; tested in HEK293 cells; also: % is scaled to controls: 0 for no effect and ±100 for the full control effect; nearly all actives have a fitted effect of over 50% in size; luciferase read-out
SARS PLP yeast: blocks SARS-CoV papain-like protease in a yeast assay | S. cerevisiae expressing SARS-CoV PLpro, growth rescue; control for the full effect not named in the record | Potency, µM (series often up to 32.9 µM), without a hit: top-dose activity, positive = growth rescue | 0.19% of 330,000 active; active means well fitted rising curve with a large enough effect; inconclusive means small, poorly fitted or top-dose-only effect; inactive means no such curve, though single readings can be large or run the other way; also: 0% is about no effect; nearly all actives have a fitted effect of over 55% in size; growth read by luminescence after 48 h
Cruzain Triton: cruzain (T. cruzi) inhibition with detergent; P25779; purified cruzain, Z-FR-AMC fluorescence, 0.01% Triton; Potency, µM, for the others: max response, negative = inhibition, actives largely listed as inhibitors; 0.43% of 200,000 active; AID 1478;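 also: plate controls were neutral wells for no effect and buffer without enzyme for full effect; nearly all actives have a fitted effect of over 40% in size; top concentration of the series not given in the record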
Target sequence (P25779 123-467 limits assumed): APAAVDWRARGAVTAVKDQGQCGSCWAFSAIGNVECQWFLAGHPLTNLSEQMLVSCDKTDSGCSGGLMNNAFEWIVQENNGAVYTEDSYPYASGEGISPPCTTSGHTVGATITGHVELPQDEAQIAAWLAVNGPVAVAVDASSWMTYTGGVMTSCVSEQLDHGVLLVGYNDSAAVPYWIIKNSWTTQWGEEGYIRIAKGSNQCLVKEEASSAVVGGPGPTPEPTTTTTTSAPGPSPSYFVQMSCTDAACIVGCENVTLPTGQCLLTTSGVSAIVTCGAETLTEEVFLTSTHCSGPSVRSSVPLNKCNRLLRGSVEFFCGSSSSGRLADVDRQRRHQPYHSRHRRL
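Read-out: AMC fluorescence (360 nm excitation, 450 nm emission), four reads over 2 min, first-to-third difference used. Conditions: cruzain 1.5 nM, Z-FR-AMC 2 uM, pH 5.5 acetate, 5 mM DTT, 0.01% Triton X-100.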
RE007 growth inh: less growth of the S. pombe RE007 Vpr strain | S. pombe RE007 Vpr strain, BacTiter-Glo ATP luminescence, 24 h; control for the full effect not named in the record | Potency, µM (top dose mostly 92.2 µM), inactives show at the top dose activity change, negative = less growth | 0.21% of 360,000 active | AID 651644; active = well fitted falling curve with a large enough effect; inconclusive = small, poorly fitted or top-dose-only effect; inactive = no such curve, though single readings can be large or run the other way;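 also: % is scaled to controls: 0 for no effect and ±100 for the full control effect; nearly all actives have a fitted effect of over 50% in size; the assay follows cell death caused by Vpr and the record does not say whether a fall means rescue or toxicity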
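Fission yeast strain RE007, carrying one chromosomally integrated HIV-1 vpr copy, was seeded at OD 0.01 in PMG+AL medium with 23 nL pinned compound. After 24 h at 30 °C and 99% humidity, viability was read by BacTiter-Glo luminescence.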
MARV entry inh: inhibitors of Marburg virus binding or cell entry; Marburg virus pseudotyped entry inhibition, cell reporter; control for the full effect not named in the record; about a third of the inactives were read at about 46 µM; Potency, µM (doses to about 37.8 µM), for inactives: at the highest dose activity change, negative = inhibition, most hits filed as inhibitors; 1.8% of 300,000 active; AID 540276; active = well fitted inhibition curve with a large enough effect; inconclusive = small, poorly fitted or top-dose-only effect, or effect the other way; inactive = flat fitted curve, though single readings scatter; tested in HEK293 cells; about a fifth of its hits are not listed in these tables; also: % is scaled to controls: 0 for no effect and ±100 for the full control effect; luciferase read-out
StopGo reporter: lowers the luciferase signal of an FMDV 2A StopGo reporter; AID 1159524; 1.2% of 410,000 active; human cells with a luciferase reporter of 2A StopGo recoding; control for the full effect not named in the record; Potency, µM (top dose mostly 57.9 µM), inactives show at the highest dose signal change, negative = less light; active = well fitted falling curve with a large enough effect; inconclusive = small, poorly fitted or top-dose-only effect; inactive = no such curve, though single readings can be large or run the other way; tested in HEK293T cells; also: % is scaled to controls: 0 for no effect and ±100 for the full control effect; nearly all actives have a fitted effect of over 45% in size; luciferase light after 4 h
NS1 inh: influenza NS1 inhibition; S. cerevisiae slowed by influenza A NS1, growth recovery by OD600; Potency, µM (doses to about 46.1 µM), without a hit: at the top dose activity, positive = more growth; 0.4% of 270,000 active; AID 2326; active means well fitted rising curve with a large enough effect; inconclusive means small, poorly fitted or top-dose-only effect; inactive means no such curve, though single readings can be large or run the other way; also: nearly all actives have a fitted effect of over 50% in size
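A cell-based growth assay was used: compounds that relieve NS1-induced slow growth of budding yeast raise OD600. Assay medium was yeast nitrogen base with ammonium sulphate and -URA supplement, pH 6.0, with 2% galactose.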
Cruzain noTriton: blocks cruzain activity in detergent-free assay. P25779. purified cruzain, Z-FR-AMC fluorescence, no detergent. Potency, µM, inactives show max response, negative = inhibition, most hits filed as inhibitors. 2.3% of 200,000 active. AID 1476;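 also: plate controls were enzyme without inhibitor for no effect and buffer without enzyme for full effect; nearly all actives have a fitted effect of over 40% in size; top concentration of the series not given in the record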
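Purified cruzain at 1.5 nM, pre-incubated 15 min with compound at room temperature in 100 mM sodium acetate pH 5.5, 5 mM DTT, 0.00005% Triton X-100. Reaction started with 2 uM Z-FR-AMC; AMC fluorescence increase over 60 s gives rate.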
* hit, by the source's call; ? = inconclusive; . = not tested or not shown; & = joins results of further samples; [ ] = dose if it differs, or a comment. Unless noted, calls follow the shape of the dose curve; as a rule, active = well fitted curve in the direction sought with a large enough effect; inconclusive = small, poorly fitted or top-dose-only effect, or another doubt; inactive = no such curve, though single readings can be large; an effect the other way counts as inactive or inconclusive. Potency is read from the fitted curve at half-maximal effect. Rows are unselected, and some 4.7% of all compounds hit somewhere here.

The line under a structure holds: LASV entry inh | SARS PLP yeast | Cruzain Triton | RE007 growth inh | MARV entry inh | StopGo reporter | NS1 inh | Cruzain noTriton
- CCOC(=O)c1sc(NC(=O)C(CC)Sc2nnc3c4ccccc4n(C(C)C)c3n2)nc1C (stereo not given)
 : . | 2% | -7.6% | 9% | 1% | -9% | 14% | -6%
- COc1ccc(S(=O)(=O)N2CCN(CC(=O)Nc3ccccc3Cl)CC2)cc1
 : . | 18% | . | 4% | . | -29% | 8% | .
- COc1cccc(CNc2nc3nc(C)cc(=O)n3[nH]2)c1
 : 0% | -1% | 2.8% | 16% | 13% | 5% | -8% | 10%
- CCOC(=O)c1c(C)n(C)c2c(C)cc(O)c(OC(C)=O)c12
 : 2% | 1% | -1.0% | -1% | ? | 8% | 2% | 3%
- CCOC(=O)N1CCN(S(=O)(=O)CCNC(=O)c2ccc(OC)cc2)CC1
 : 3% | 2% | . | -3% | -3% | -11% | . | .
- COc1ccc(Cl)cc1C(=O)NNC(=O)CSc1nnc2ccccn12
 : 6% | 13% | . | 5% | -4% | 4% | . | .
- CCOC(=O)c1cnc(SCC)[nH]c1=O
 : 8% | -6%&1% | 0.0% | 17% | 11%&11% | -22% | -1%&2% | 4%
- Cn1c(=O)c(=O)n(C)c2cc(S(=O)(=O)N3CCOCC3)ccc21
 : 14% | 6% | 1.3% | 15% | -5% | 6% | -2% | -3%
- CC(C)CNS(=O)(=O)c1ccc(CCC(=O)NCCC2=CCCCC2)cc1
 : . | -1% | . | -27% | . | 10% | -5% | .
- Cc1ccc(Sc2nnc(-c3ccccc3)cc2C#N)cc1
 : 1% | 0% | 0.7% | 0% | 10% | -10% | 2% | ?
- CC1(C(=O)NC(=S)NNC(=O)c2ccncc2)CCCCC1
 : 6% | ? | -1.9% | . | ? | -20% | -47% | -7%
- COc1cccc(CC2(CO)CCCN(CC3=Cc4cc(Cl)ccc4OC3)C2)c1 (stereo not given)
 : ? | -1% | . | -22% | ? | -18% | -32% | .
- O=S1(=O)CC/C(=N\O)c2ccccc21
 : -5% | ? | -1.2% | 9% | -7% | -22% | 9% | -10%
- O=C1NC(=O)C(Cc2ccccc2)(c2cccnc2)N1 (stereo not given)
 : 11%[46.1 µM] | 1% | . | 12% | 18%[46.1 µM] | -16% | 2% | .
- O=c1cc(N2CCCCC2)c(-c2ccccc2)nn1Cc1cccc(Cl)c1
 : -30% | -4% | -3.6% | 4% | -20% | ? | 15% | 0%
- CCCNS(=O)(=O)c1ccc(OCC(=O)Nc2ccc3c(c2)OCO3)cc1
 : 0% | 1% | . | 31% | ? | 18% | 2% | .
- COc1ccc(C(=O)NC(=S)N2CCNC(=O)C2)cc1Br
 : . | 0% | . | 6% | . | -14% | 7% | .
- O=C(Cn1c(COc2ccccc2)nc2ccccc21)Nc1cc(Cl)cc(Cl)c1
 : -8% | 19% | -1.9% | 4% | 0% | -19% | 17% | -14%
- COc1ccc(OC)c2c(C)cc(N3CCN(C(=O)c4ccc(Cl)cc4)CC3)nc12
 : -26% | 2% | -24% | 3% | -5% | -7% | 2% | -6%
- Cc1nnsc1S(=O)c1ccccc1Cl (stereo not given)
 : 4%[46.1 µM] | 1% | . | 2% | -7%[46.1 µM] | -15% | 7% | .

Quoted from the listing.
Under NS1 inh, CCCNS(=O)(=O)c1ccc(OCC(=O)Nc2ccc3c(c2)OCO3)cc1 is listed with 2%
Under RE007 growth inh, COc1cccc(CC2(CO)CCCN(CC3=Cc4cc(Cl)ccc4OC3)C2)c1 (stereo not given) is listed with -22%

Later entries.
The line under a structure holds: LASV entry inh | SARS PLP yeast | Cruzain Triton | RE007 growth inh | MARV entry inh | StopGo reporter | NS1 inh | Cruzain noTriton
- O=C(NC(=S)NCCC1=CCCCC1)c1ccco1
 : 26%[46.1 µM] | 3% | . | -7% | ? | 21% | -19% | .
- COC(=O)c1ccc(-n2cncn2)c([N+](=O)[O-])c1
 : 3% | 0% | . | 4% | ? | -3% | 4% | .
- O=C(Cc1cccs1)NCc1ccccc1F
 : -17% | 2% | 2.4% | 21% | ? | 59%[activator] | 2% | -7%
- CNc1nc2c(Cl)cc(Cl)cc2s1
 : . | -3% | . | -21% | . | 4% | -30% | .
- COc1ccc2c(c1)CC(NC(=O)Nc1cc(Cl)ccc1OC)CO2 (stereo not given)
 : -5%[46.1 µM] | . | -3.4% | . | . | ? | . | -20%
- COc1ccc(-n2nc(C(=O)Nc3ccc(Br)cc3C)c3c4ccccc4n(C)c3c2=O)cc1
 : -1%[46.1 µM] | . | -1.5% | . | -8%[46.1 µM] | -15% | . | 9%
- CC1CCCCC1NC(=O)c1ccc(NS(=O)(=O)c2ccc3[nH]c(=O)[nH]c3c2)cc1 (stereo not given)
 : ? | 2% | . | 23% | -3% | -1% | . | .
- Cc1ncc(CN2CCCC(C(=O)Nc3ccc(-c4cscn4)cc3)C2)cn1 (stereo not given)
 : ? | -2% | . | 2% | 6% | 15% | 17% | .
- CSc1nncc(-c2ccc(F)c(F)c2)n1
 : 4% | 2% | -5.4% | ? | ? | -6% | -6% | -4%
- CCn1c(O)c2ccc(C(=O)N=NC(=O)c3cccnc3)cc2c1O
 : 12% | -1% | -0.4% | 11% | -5% | 18% | 6% | -4%
- O=C(COCc1cc(-c2ccc3c(c2)OCO3)on1)N1CCCCC1
 : . | -2% | . | 7% | . | 17% | 21% | .
- CC(=O)c1ccc2c(c1)CC(C)C(=O)N2C (stereo not given)
 : -3% | -14% | 0.4% | 0% | 5% | -3% | 6% | -5%
- CCOC(=O)c1nn(-c2ccc(C)cc2)c(C)c1C(C)=O
 : -7% | . | 1.7% | -4% | -6%[46.1 µM] | 8% | -17% | 4%
- CCOC(=O)CC(=O)CSc1nc(-c2ccc3c(c2)OCO3)cc(C(F)(F)F)c1C#N
 : -18% | 4% | -6.7% | 0% | -19% | -9% | 5% | ?
- COC(CNC(=O)C(=O)NCC1OCCN1C(=O)c1ccc(Cl)cc1)OC (stereo not given)
 : -20% | -1% | -0.3% | 6% | 7% | -11% | 4% | 5%
- Cc1ccc(-c2nnn(CC(=O)N(Cc3ccco3)C(C(=O)NC(C)(C)C)c3ccc(C)o3)n2)o1 (stereo not given)
 : ? | 0% | . | -6% | ? | -18% | 5% | .
- COc1cccc(NC(=O)C2CCN(c3cnccn3)CC2)c1
 : 14% | -12% | . | -4% | 7%[46.1 µM] | 16% | 0% | .
- CC(=O)c1cc(C#N)c(SCC(=O)Nc2nccs2)nc1C
 : . | 1% | . | 8% | . | 55%[activator] | 1% | .
- O=S1(=O)C[C@@H](O)[C@@H](Nc2ccc(Cl)cc2)C1
 : 6% | 3% | 3.5% | 22% | -27% | 6% | 8% | 0%
- COc1ccc(CCC2CCNCC2)cc1
 : . | -4% | . | 4% | . | -3% | -1% | .

Further results
The line under a structure holds: LASV entry inh | SARS PLP yeast | Cruzain Triton | RE007 growth inh | MARV entry inh | StopGo reporter | NS1 inh | Cruzain noTriton
- COc1ccc(S(=O)(=O)N2CCCC2C(=O)Nc2ccc(C)cc2)cc1 (stereo not given)
 : 23% | 0% | 5.6% | -11% | -10% | 8% | -10% | -15%
- c1cncc(-c2nnc(-c3cccs3)o2)c1
 : 26% | 0% | -0.6% | 4% | 19%[46.1 µM] | 59%[activator] | -9% | 4%
- Cn1c(=O)c2c(nc(N3CCc4ccccc4C3)n2Cc2ccc(Br)cc2)n(C)c1=O
 : -4% | 2% | -13% | 29% | 5%&5% | ? | 2% | 9%
- COc1cc(OC)c2ccc(=O)oc2c1C(CC(=O)N1CCOCC1)c1ccc(N(C)C)cc1 (stereo not given)
 : . | 12% | . | -8% | . | 4% | -20% | .
- O=C(O)Cc1sc(Nc2cccc3ccccc23)nc1-c1ccc(F)cc1
 : . | -1% | . | 2% | . | 0% | 2% | .
- COc1ccccc1/C=C/CN1CCOCC1
 : -4% | 9% | 1.5% | -4% | 1% | 20% | 7% | -5%
- CCOC(=O)C1=C(C)NC(=O)NC1c1ccccc1Cl (stereo not given)
 : -4% | 2% | 1.5% | 11% | ? | -19% | ? | -20%
- CN(Cc1ccccc1)C(=O)CSc1nc2ccccc2c(=O)n1Cc1ccco1
 : 5.8µM* | 2% | -2.3% | -9% | 6.5µM* | . | -7% | 11%
- CCC(CC)C(=O)Nc1nnc(S(=O)(=O)N2c3ccccc3CC2C)s1 (stereo not given)
 : ? | 2% | -12% | -18% | . | ? | 1% | -6%
- CCOC(=O)N1CCN(c2cc(C)c([N+](=O)[O-])cc2F)CC1
 : 5% | -9% | . | -21% | -21%[46.1 µM] | -29% | . | .
- O=C(Nc1cccc(Cl)c1)N1N=CCC1c1ccccc1 (stereo not given)
 : -22% | 1% | . | -8% | ? | -17% | 3% | .
- COC(=O)c1c(NC(=O)C2Cc3ccccc3C(=O)O2)sc2c1CCCC2 (stereo not given)
 : -9% | -1% | -4.0% | 5% | -11% | -3% | 2% | -24%
- CCCCn1c(=O)[nH]c(=O)c2c1nc(-c1ccc3ccccc3c1)n2CC
 : ? | -4% | . | -18% | -4%[46.1 µM] | -21% | . | .
- Cn1ncc(C#N)c1NC(=O)C1CC(c2c(F)cccc2Cl)=NO1 (stereo not given)
 : 32% | -1% | 4.4% | -7% | -2% | . | -6% | -12%
- CCCC(=O)Nc1nn(C)c2nc3ccc(C)cc3cc12
 : . | 2% | . | 14% | . | -3% | 1% | .
- O=C1Nc2ccccc2/C1=C/c1ccccc1Cl
 : ? | -4% | . | 1% | ? | -7% | -67% | .
- Cc1cccc(NC(=O)c2cccnc2)c1C
 : 6% | -3% | . | 11% | 26% | -2% | 13% | .
- Cc1ccc(-c2[nH]nc3c2C(c2ccoc2)C(C#N)=C(N)O3)cc1C (stereo not given)
 : 0% | 2% | -18% | 9% | 5% | . | 11% | -18%
- CCOC(=O)CSc1cc(=O)n(CC)c2ccccc12
 : 21% | 1% | 2.8% | -11% | -23% | 6% | -23% | 6%
- COc1ccc(/C=C/c2cccc[n+]2C)c(O)c1
 : . | 13% | . | -7% | . | 13% | -4% | .

Source: PubChem
